# Assay outcomes: PubChem, National Center for Advancing Translational Sciences (NCATS)
# CtBP-E1A blk – CtBP/E1A binding inhibition | activity change, % (concentration not given with the values) | 340,000 compounds, 0.49% hits | AlphaScreen GST-E1A/His-CtBP binding, 1536-well; hits give low values; control for the full effect not named in the record; in the data active means activity change below about -65%; inconclusive means about -30% to -65%; inactive means above about -30%; note: % is set by controls: 0 for no effect and ±100 for the full control effect
#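 In 5 uL wells, 23 nL compound meets equimolar GST-E1A and His-CtBP (5X stock 125 nM each) for 2 h, 37 °C. Beads (5X, 50 ug/mL) then 1 h, 37 °C, dark.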
# Six1-Eya2 inh – inhibitors of human Six1/Eya2 interaction | Q15475+O00167 | AlphaScreen GST-Six1/His-Eya2 binding, biochemical; hits give low values; control for the full effect not named in the record | activity change, % (test concentration not listed) | 360,000 compounds, 0.56% hits; in the data active = activity change below about -65%; inconclusive = about -30% to -65%; inactive = above about -30%; note: % is set by controls: 0 for no effect and ±100 for the full control effect
#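 Compounds are tested against tagged Six1 and Eya2 proteins bridged by glutathione donor and nickel acceptor beads; after a one-hour incubation at 37 °C without light, AlphaScreen emission is recorded.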
# TRPML1 agonist – agonists of human TRPML1 channel. Q9GZU1. TRPML1-expressing cells, Ca2+ dye fluorescence, FDSS; host cell line not named in the record; reference of the full effect not given here. activation, % (test concentration not listed). 410,000 compounds, 0.12% hits. AID 624414; in the data active = activation above about 50%; inconclusive = about 30% to 50%; inactive = below about 30%; note: 0% is about no effect; the text of the record puts the active cut at 80%
# Target sequence (Q9GZU1 whole entry, looked up): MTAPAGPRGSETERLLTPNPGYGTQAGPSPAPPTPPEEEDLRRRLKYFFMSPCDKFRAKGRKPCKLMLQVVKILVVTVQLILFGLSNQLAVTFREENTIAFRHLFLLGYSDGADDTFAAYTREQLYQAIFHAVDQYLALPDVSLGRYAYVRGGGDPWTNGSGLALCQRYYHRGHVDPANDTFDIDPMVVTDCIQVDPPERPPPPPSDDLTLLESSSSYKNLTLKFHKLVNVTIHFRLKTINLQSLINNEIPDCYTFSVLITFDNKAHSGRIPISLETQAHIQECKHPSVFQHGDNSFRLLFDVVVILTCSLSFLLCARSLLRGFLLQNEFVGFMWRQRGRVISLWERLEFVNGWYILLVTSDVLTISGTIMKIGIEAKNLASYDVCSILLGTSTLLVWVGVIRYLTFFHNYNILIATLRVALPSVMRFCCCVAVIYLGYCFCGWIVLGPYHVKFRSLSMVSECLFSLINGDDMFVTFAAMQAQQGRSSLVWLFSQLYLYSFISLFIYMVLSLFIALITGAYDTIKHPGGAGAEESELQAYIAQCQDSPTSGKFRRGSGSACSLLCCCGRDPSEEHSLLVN
#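 Cells: TRPML1-DL, 1X Tet inducer, ~16 h at 37 degrees C/5% CO2. Dye: ABD Ca8 no-wash + quencher, 45-90 min RT. Read: 10 s baseline, compound add, 110 s agonist phase; 54-4 EC80 (4uM final), 110 s antagonist phase.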
# PINK1 modulator – changes PINK1 expression | PINK1 immunofluorescence, high-content cytometry, 24 h | Potency, µM (titrated, usually from 76.6 µM), for inactives: at the highest dose activation (PINK1 increase), hits mostly activators | 410,000 compounds, 0.2% hits; active = well fitted activation curve with a large enough effect; inconclusive = small, poorly fitted or top-dose-only effect; inactive = flat fitted curve, though single readings scatter; cell line not stated here;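 note: potency is the fitted concentration of half-maximal effect; % of control where 0% means no effect; nearly all actives have a fitted effect of over 65% in size; a mitochondrial uncoupler was the plate control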
#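 Measures PINK1 amount and localization on or inside mitochondria by immunofluorescence. Stable cells get compounds at 5 concentrations for 24 hours before fixation and staining; CCCP controls included.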
# TRPML1 blocker – blocks the human TRPML1 channel. Q9GZU1. TRPML1-inducible cells, Ca2+ dye fluorescence, FDSS; hits give low values; inhibition of EC80 agonist-evoked calcium signal. activity change, negative = inhibition, % (no concentration beside the values). AID 624415. 390,000 compounds, 0.02% hits; in the data active means activity change below about -50%; inconclusive means about -30% to -50%; inactive means above about -30%;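 note: stimulus is agonist 54-4 at its EC80 concentration; % is set by controls: 0 for no effect and ±100 for the full control effect; compound concentration not given in the record; the text of the record puts the active cut at -80%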
#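 TRPML1-DL cells, Tet-induced overnight (~16 h, 37 °C) at 1,500 cells/well, were loaded with Ca8 no-wash dye plus quencher for 45-90 min at room temperature. Compounds were pinned during FDSS kinetic reading; agonist 54-4 at EC80 (4 uM final) then added.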
# D2 ag – human D2 receptor agonism in beta-arrestin assay | 360,000 compounds, 0.084% hits | DiscoveRx PathHunter D2 beta-arrestin, luminescence, 90 min; 100% = 57 uM dopamine signal | activation, % (test concentration not listed); in the data active = activation above about 40%; inconclusive = about 15% to 40%; inactive = below about 15%; note: compound concentration not given in the record; the text of the record calls up to 30% inactive
# Target sequence (P14416 whole entry, looked up): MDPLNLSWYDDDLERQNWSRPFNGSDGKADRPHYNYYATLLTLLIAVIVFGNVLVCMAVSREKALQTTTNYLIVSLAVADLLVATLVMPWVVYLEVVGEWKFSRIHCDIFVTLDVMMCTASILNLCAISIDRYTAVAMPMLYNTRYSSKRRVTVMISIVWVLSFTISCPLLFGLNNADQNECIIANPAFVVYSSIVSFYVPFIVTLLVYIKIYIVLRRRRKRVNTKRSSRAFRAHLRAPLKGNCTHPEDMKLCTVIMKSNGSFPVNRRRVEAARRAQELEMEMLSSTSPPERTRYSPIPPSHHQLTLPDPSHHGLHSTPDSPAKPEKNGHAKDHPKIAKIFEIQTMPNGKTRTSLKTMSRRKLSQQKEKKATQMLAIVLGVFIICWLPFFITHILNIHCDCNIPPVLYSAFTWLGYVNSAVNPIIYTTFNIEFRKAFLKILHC
#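 Agonist mode: compounds alone added to overnight-plated D2 PathHunter cells for 90 min at 37 C, with 57 uM final dopamine (EC100) defining full response. Beta-arrestin recruitment detected by chemiluminescent reagent, read after 1 h at ambient temperature.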
# An asterisk follows results filed as active; ? = inconclusive; . = not tested or not shown; & = joins results of further samples; [ ] = remark or other dose.
SMILES,CtBP-E1A blk,Six1-Eya2 inh,TRPML1 agonist,PINK1 modulator,TRPML1 blocker,D2 ag
O=S(=O)(/C=C/c1ccccc1)N1CCN(c2nc(-c3ccccc3)nc3ccccc23)CC1,-1,7,-0.8,-0.2%,-3,1.5
C/C(=N\O)c1cc(Cl)cc(Cl)c1O,0,-19,0.0,3.7%,4,-4.6
Cc1cc(C)c(OCCNCc2ccccc2)c(C)c1,2,5,-1.1,8.8%,7,-2.9
O=C(CS(=O)(=O)c1ccccc1)N(CCCN1CCOCC1)c1nc2c(F)cccc2s1,-4,1,-0.1,-1.6%,13,0.1
O=S(=O)(N1CCOCC1)N1CCN(c2ccccc2F)CC1,3,2,0.4,0.8%[38.3 µM],-4,-1.6
Cc1ccc2c(CC(=O)NCC3(N4CCOCC4)CCCCC3)coc2c1C,-3,-4,0.1,1.2%,41,-5.3
CC(=O)Nc1ccccc1OCCCN1CCC(C(O)(c2ccccc2)c2ccccc2)CC1,1,-7,2.8,-1.1%,.,.
NC(=O)CCC(NS(=O)(=O)c1ccc(Cl)cc1)C(=O)NCC1CCCCC1 (stereo unspecified),-9,-2,-0.2,-1.1%,27,-1.2
Cc1ccccc1Cn1c(=N)n(CC(=O)c2ccc([N+](=O)[O-])cc2)c2ccccc21,1,0,2.0,7.6%,39,5.4
COc1ccc(N/C(C)=C2/C(=O)C(=O)N(CCO)C2c2ccc([N+](=O)[O-])cc2)cc1 (stereo unspecified),-3,10,-0.1,1.7%,40,-1.6
Cc1ccc(C(C)C)cc1OCC(=O)N/N=C/c1ccc2c(c1)OCCO2,-2,-15,0.4,22%,-8,-4.0
Cn1c(=O)c2c(nc(CN3CCN(c4ccccc4)CC3)n2CCc2ccccc2)n(C)c1=O,0,9,1.8,-2.0%,-13,-3.0

# 6 structures already listed, ordered by formula weight, falling:
SMILES,CtBP-E1A blk,Six1-Eya2 inh,TRPML1 agonist,PINK1 modulator,TRPML1 blocker,D2 ag
O=C(CS(=O)(=O)c1ccccc1)N(CCCN1CCOCC1)c1nc2c(F)cccc2s1,-4,1,-0.1,-1.6%,13,0.1
CC(=O)Nc1ccccc1OCCCN1CCC(C(O)(c2ccccc2)c2ccccc2)CC1,1,-7,2.8,-1.1%,.,.
Cc1ccccc1Cn1c(=N)n(CC(=O)c2ccc([N+](=O)[O-])cc2)c2ccccc21,1,0,2.0,7.6%,39,5.4
Cc1ccc(C(C)C)cc1OCC(=O)N/N=C/c1ccc2c(c1)OCCO2,-2,-15,0.4,22%,-8,-4.0
Cc1cc(C)c(OCCNCc2ccccc2)c(C)c1,2,5,-1.1,8.8%,7,-2.9
C/C(=N\O)c1cc(Cl)cc(Cl)c1O,0,-19,0.0,3.7%,4,-4.6

# Later entries
SMILES,CtBP-E1A blk,Six1-Eya2 inh,TRPML1 agonist,PINK1 modulator,TRPML1 blocker,D2 ag
Cc1ccc(NC(=S)N(Cc2cccs2)Cc2cc3cc(C)cc(C)c3[nH]c2=O)cc1,8,8,-0.1,?,-13,-1.5
CC(=O)Nc1nonc1-c1nnc(SCC(=O)Nc2cc(C)cc(C)c2)n1-c1ccccc1,.,.,0.1,-0.7%,-5,.
C/C(O)=C(/C=Nc1ccccc1)C(=O)Nc1ccccc1,4,0,1.5,3.7%,11,-2.5
O=C(OCCNc1ncc(C(F)(F)F)cc1Cl)c1ccc(S(=O)(=O)N2CCOCC2)cc1,11,5,1.2,2.9%[38.3 µM],5,-0.4
Cc1ccc(C2(C)NC(=O)N(CC(=O)Nc3cc(S(=O)(=O)N4CCCCC4)ccc3OC(C)C)C2=O)cc1 (stereo unspecified),0,-3,0.9,-0.4%,24,0.0
O=c1c2ccccc2nc2c3ccccc3cnn12,?,?,1.1,-1.7%,-6,-0.4
O=S(=O)(c1ccc(Cl)c(Cl)c1)c1snnc1-c1ccccc1,-1,-2,1.9,-2.1%,28,-7.4
Cc1nnc(-c2cccc(Br)c2)c2cn(-c3cccc(Br)c3)nc12,-11,-25,1.3,5.1%,63,-2.5
CCc1ccc(C(C(=O)NCc2ccccc2)N(C(=O)c2csnn2)C2CC2)cc1 (stereo unspecified),4,-3,-0.7,0.2%,-13,-4.6
COc1ccc(CNC(=O)C(C)Sc2nc3ccccc3c(=O)n2CCCN2CCOCC2)cc1 (stereo unspecified),6,0,0.3,-0.3%,12,1.0
Cc1ccccc1CCN(C(=O)CN1C(=O)c2ccccc2S1(=O)=O)C(C(=O)NCC1CCCO1)c1ccncc1 (stereo unspecified),0,-2,-0.1,3.9%,2,-3.0
CCCC(=O)NC(=S)Nc1cccc(NC(=O)c2ccccc2Cl)c1,5,-5,0.1,1.2%,2,-1.2
COc1cc(/C=C2\SC(=O)N(CCNC(=O)c3cnc(C)cn3)C2=O)cc(OC)c1OC,-7,-9,-0.2,7.9%,0,-4.0
Cc1ccc(OCCC(=O)OCC(=O)NCCNC(=O)COC(=O)CCOc2ccc(C)cc2)cc1,1,2,-0.2,1.6%,13,-3.0
CCCn1nnnc1SCC(=O)N1CCCc2ccccc21,3,2,-0.7,-0.8%,16,-4.3
CCN(Cc1ccccc1)C1CCN(Cc2ccc(SC)cc2)CC1,-30,-10,-0.2,2.8%,5,-2.5
CCOC(=O)c1cccc(NC(=O)CN2C(=O)c3ccccc3Sc3ncccc32)c1,.,.,0.2,2.0%,1,.
COc1cc(NC(=S)Nc2ccccn2)cc(OC)c1,3,3,-0.5,2.7%,14,2.2
CN(C)S(=O)(=O)c1ccc(NC(=O)CN2CCc3ccccc32)cc1,-1,1,0.1,0.3%,32,-2.9
CN(C)/C=C/C(=O)c1ccc(Br)cc1,-1,4,0.1,1.7%,0,-3.5
CC(C)COC(=O)N(C)C[C@@H]1OCc2cnnn2CCCC(=O)N([C@H](C)CO)C[C@@H]1C,2,1,-0.3,-0.9%,-3,-2.1
COc1cccc(CN(C)C(=O)c2cccnc2SC)c1OC,-4,0,0.3,4.9%,-20,-4.9
COc1cc2c(cc1OC)C[N+](C)(C)CC2,11,5,.,0.6%,.,-7.3
COc1cc(OC)cc(C(=O)NNC(=O)CNC(=O)c2ccc(Br)o2)c1,7,-1,-0.6,1.6%,8,-4.4
S=C(NCc1ccco1)N1CCN(c2ccc(Cl)cc2)CC1,-4,-18,-0.3,5.1%,6,6.0
O=C(Nc1ccc(Cl)cc1)OCCn1nnnc1C(c1ccccc1)N1CCOCC1 (stereo unspecified),-2,-1,0.9,1.4%,-6,-1.3
CCN(CC)c1ccc(C(=O)OCC(=O)Nc2sccc2C#N)cc1,-3,1,-0.7,-1.6%,4,-0.8
C=CCOC(=O)C1=C[C@@H](c2ccc3c(c2)OCO3)C[C@@H](OCc2ccc(CO)cc2)O1,-6,6,0.6,-0.4%,-3,1.4
O=C(COC(=O)Cc1ccc(S(=O)(=O)N2CCOCC2)s1)Nc1ccc2c(c1)OCO2,-2,-3,1.5,-0.3%,46,0.1
Cc1nc2ccccc2n1S(=O)(=O)c1ccc(F)cc1,.,6,0.6,-0.4%,-21,5.3
Cc1csc(NC(=O)/C=C/c2ccc3c(c2)OCO3)n1,-12,-2,0.9,21%,-11,-2.7
CCOC(=O)[C@]12CCC=C1N(Cc1cccc3ccccc13)C(=O)[C@H](CC(=O)N1CCC(c3ccccc3)CC1)C2,-3,-18,-0.2,0.6%,.,.
COc1ccc(-n2ccn(CC(=O)NCCc3ccccc3)c(=O)c2=O)cc1OC,.,.,-0.1,1.7%,-5,.
O=C(Nc1ccc2oc(-c3ccccc3F)nc2c1)c1ccco1,-5,0,0.1,3.3%,4,-0.6
Clc1nc(Oc2ccccc2)nc(-c2cn(-c3ccccc3)c3ccccc23)n1,.,4,0.4,-0.2%,12,0.4
C=CCSc1nc2ccccc2n1C(=O)/C=C/c1ccc(OC)c(OC)c1,-8,-2,1.7,1.4%[38.3 µM],23,-2.5
COc1ccccc1C(=O)NNC(=O)c1ccc(Br)cc1,-2,1,-0.1,-0.7%,7,-0.3
CS(=O)(=O)N(CC(=O)Nc1ccc(S(=O)(=O)N2CCOCC2)cc1)c1ccccc1Br,-10,-1,1.7,3.2%,42,-4.1
CCOC(=O)c1ccccc1NC(=O)N1CCc2c(sc(C)c2CC)C1c1ccccc1 (stereo unspecified),.,.,-0.9,2.1%,14,.
CCCNC(=O)c1ccc(N2CCC3(CC2)CC(c2cccc(Br)c2)=NO3)c(NC(=O)c2ccc(Cl)c([N+](=O)[O-])c2)c1,4,-4,-0.4,1.4%,64,-3.9
Fc1ccc(NC(=S)Nc2cc(Cl)ccc2Cl)cc1,9,4,-0.1,1.3%,0,-1.8
Cc1ccc(NC(=O)c2ccc3c(c2)N(CC(=O)N2CCCCC2)C(=O)C(C)(C)O3)cc1,-1,-3,-0.9,-1.7%,5,-3.1
COc1ccccc1NC(=O)CSc1ccc(-c2sc(C)nc2C)nn1,.,.,3.4,-1.1%,11,.
O=C(COC(=O)CSc1ccc([N+](=O)[O-])cc1)NCCCc1ccccc1,24,0,0.1,1.4%,-6,1.9
CNC(=S)NNC(=O)c1ccccc1Cl,0,-2,1.1,1.0%,-3,-4.5
O=C(c1ccc(Cl)c(S(=O)(=O)N2CCCC2)c1)N1CCOCC1,10,11,-0.2,-2.0%,-6,-1.8
COc1ccc(CNc2ccc(S(N)(=O)=O)cc2)cc1,20,13,0.8,0.5%,3,-1.1
OCCN1CCN(c2nc(-c3ccccc3)c3cc(Cl)ccc3n2)CC1,0,12,-0.1,-3.1%,-15,1.8
Cc1cc(OCc2nc(N)nc(N)c2-c2ccc(Cl)c(Cl)c2)ccc1[N+](=O)[O-],-3,1,2.6,4.0%,3,1.3
CC1CN(c2nc3ccccc3nc2SCC(=O)Nc2cccc(C(F)(F)F)c2)CC(C)O1 (stereo unspecified),12,18,1.3,?,-14,0.6
O=S(=O)(/N=C(\c1ccccc1)N1CCOCC1)c1cccs1,6,5,1.1,-0.8%,3,0.2
COc1ccc(NC(=O)CNS(=O)(=O)c2cccs2)c(OC)c1,-9,-5,-0.9&0.3,-0.8%,10&-8,-1.5
Cc1ccc(C2c3sc(=O)[nH]c3SC3C4CC(C5C(=O)N(C(C)C(=O)O)C(=O)C45)C23)cc1 (stereo unspecified),0,0,1.6,-0.5%,-15,-0.1
COc1cc(/C=C(\C#N)C(=O)Nc2cccc(C(=O)O)c2)ccc1OCc1ccc(Cl)cc1,13,14,2.3,-0.4%,62,-3.7
Cc1cccc(CN2C(=O)c3ccccc3Sc3ccc(C(=O)O)cc32)c1,.,3,-0.5,0.9%,-3,-6.1
CC(=O)Oc1ccc(OC(C)=O)c2c1CC1(C)OC1(C)C2 (stereo unspecified),1,3,0.2,-0.6%,-6,-1.5
COc1ccc(C)cc1NC(=O)Cn1nc(N2CCN(c3ccccc3OC)CC2)ccc1=O,.,.,0.9,4.2%,-7,.
COc1ccc(CNC(=O)c2cc(-c3ccccc3O)n[nH]2)cc1,4,2,1.6,1.6%,25,-2.4
